# LANA-nucl inh – LANA-nucleosome interaction inhibition; actives 0.3% (n = 51,000); z-score (test concentration not listed); FITC-LANA1-23 / chicken nucleosome fluorescence polarization; stronger effect = lower value;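 active means both repeat wells score below -2 in polarization z-score versus plate sample wells, excluding overly bright wells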;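 further: 100 nL library stock added to about 30 µL; numbers are from one replicate; some results filed as inactive read as strong as hits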
#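 Material: Purified chicken nucleosomes with FITC-labelled LANA N-terminal peptide (1-23) | Reagent: 50 nM FITC-LANA1-23 probe | Medium: TEN-BT buffer, pH 7.5 | Times: 10–45 min incubation at room temperature | Detection: Fluorescence polarization | Replication: Duplicates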
# BasE inh – blocks the Acinetobacter baumannii siderophore enzyme BasE; inhibition, % (test concentration not listed); AID 485350; actives 0.1% (n = 84,000); purified BasE, fluorescence polarization binding displacement;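 active means both replicates above 25% with normal brightness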;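 further: 0% = negative plate control signal and 100% = positive plate control signal; stock transfer was 100 nL into about 30 µL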
# Starred values were filed as active, the others as inactive; . = not tested or not shown; & = joins results of further samples.
SMILES,LANA-nucl inh,BasE inh
O=c1[nH]nc(SC(F)(F)C(F)(F)C(F)(F)F)c(=O)[nH]1,1.08,-0.6
CCN(Cc1ccccc1)Cc1c(C)n(C)n(-c2ccccc2)c1=O,.,-0.7
CCSc1nc(N)c(NC(=O)c2ccc(OC)c(OC)c2)c(=O)[nH]1,0.175,-1.7
O=C1CC(N2CCN(S(=O)(=O)c3ccc(Cl)cc3)CC2)C(=O)N1c1ccccc1Cl (configuration not stated),.,-0.3
CN1C(=O)C(=Cc2cccs2)C(=O)N(C)C1=S,1.25,-1.1
O=C(c1ccc(COc2cc(Cl)ccc2Cl)o1)N1CCSCC1,.,-0.1
Cc1cc(C)cc(Sc2ccc3nnc(-c4ccccc4)n3n2)c1,.,-4.7
CCCC(=O)Nc1ccc2nc(SCC(=O)N3CCCC3)sc2c1,1.04,-0.9
COc1ccccc1OCCNS(=O)(=O)c1ccccc1C(F)(F)F,.,-0.8
O=C(CCCC(=O)Nc1ccccc1)Nc1ccccc1,-0.32,-0.9

# The closing 7 compounds of the part above lead into the next:
SMILES,LANA-nucl inh,BasE inh
O=C1CC(N2CCN(S(=O)(=O)c3ccc(Cl)cc3)CC2)C(=O)N1c1ccccc1Cl (configuration not stated),.,-0.3
CN1C(=O)C(=Cc2cccs2)C(=O)N(C)C1=S,1.25,-1.1
O=C(c1ccc(COc2cc(Cl)ccc2Cl)o1)N1CCSCC1,.,-0.1
Cc1cc(C)cc(Sc2ccc3nnc(-c4ccccc4)n3n2)c1,.,-4.7
CCCC(=O)Nc1ccc2nc(SCC(=O)N3CCCC3)sc2c1,1.04,-0.9
COc1ccccc1OCCNS(=O)(=O)c1ccccc1C(F)(F)F,.,-0.8
O=C(CCCC(=O)Nc1ccccc1)Nc1ccccc1,-0.32,-0.9
O=C(OCCOc1ccc(Br)cc1)c1ccc(Br)o1,.,1.2
Cn1c2c(c(=O)n(C)c1=O)C(Nc1nc3ccccc3s1)(C(F)(F)F)C(=O)N2 (configuration not stated),0.068,-5.6
CC(=O)N1CCN(C(C)=O)C2(CCCCC2)C1,.,0.0
CC(O)CN1CN=C(SCc2ccc(Cl)cc2)NC1 (configuration not stated),.,3.4
O=C(OCc1nnc(-c2ccccc2)o1)c1ccccc1N/C=C/C(=O)C(F)(F)F,.,-1.0
O=C1c2ccccc2S(=O)(=O)N1Cc1ccc(Cl)cc1Cl,.,-0.3
CC1CCCC(NS(=O)(=O)c2cccs2)C1C (configuration not stated),0.003,0.4
Cc1ccc(S(=O)(=O)Nc2ccc3oc(C)c(C(=O)NN)c3c2)cc1,.,2.5
CN(C)S(=O)(=O)c1ccc(C(=O)Nc2cc(C(F)(F)F)ccc2N2CCOCC2)cc1,.,0.4
CC(C)C(C(=O)O)n1c(-c2cccs2)n[nH]c1=S (configuration not stated),.,0.8
Cc1cc(C(=O)CSc2nnc(-c3ccc4c(c3)OCO4)o2)c(C)n1C1CCS(=O)(=O)C1 (configuration not stated),.,-5.0
O=C(O)C1CN(C(=O)c2ccccc2)c2cc(Cl)ccc2O1 (configuration not stated),0.081,2.7
O=C(Cn1nc(C(=O)O)c2ccccc2c1=O)NC1CCCC1,.,1.3
CC(C)Sc1n[nH]c(=O)n1-c1ccccc1,.,3.0
Cc1ccc(N(CC(=O)Nc2ccc(C)cc2C)S(=O)(=O)c2c(C)noc2C)cc1,0.494,3.1
Cc1ccccc1N(CC(=O)NC1CCCC1)C(=O)c1csnn1,-0.295,-1.6
Oc1c(-c2nc3ccccc3s2)sc2ncccc12,.,-1.1
CCN(CC)C(=O)Cn1c(=O)sc2ccccc21,-1.65,-0.2
CN(C)c1ccc(/C=c2\s/c(=C(/C#N)C(=O)NCCN3CCOCC3)n(Cc3ccco3)c2=O)cc1,.,-41.4
CC(C)N(C(=O)CSc1n[nH]c(-c2cccs2)n1)C(C)C,.,-0.5
OCC1CCCCCN1 (configuration not stated),-0.163,0.4
COc1cccc(-c2nn3c(Cn4cnc5ccccc54)nnc3s2)c1,-0.36,-1.3
CC1CC(=O)C=C(O)C1C(=O)OC(C)(C)C (configuration not stated),-0.784,2.0
O=C(Cn1c(-c2ccccc2)noc1=O)NCc1ccccc1,0.397,-1.4
CC(Sc1nnnn1Cc1cccs1)C(=O)Nc1ccc2c(c1)OCCO2 (configuration not stated),.,0.7
NNC(=O)c1ccncc1,-0.167&-0.124&-0.154&-0.0995,2.6&-0.1
Cc1cc(Cl)ccc1OCC(=O)Oc1ccc2c(c1)OCO2,.,1.2
O=C(CNS(=O)(=O)c1ccc(Cl)cc1)NN=C1CCCCC1,-0.816,1.6
Cc1nc(NC(=O)CSc2ccc3c(c2)OCCO3)c(Cl)cc1Cl,.,-2.7
Cc1cc2oc(=O)cc(CSc3nnc(-c4ccoc4C)n3C)c2cc1C,.,-3.1
CCC(C)N(C(=O)CSc1nc2ccccc2c(=O)n1-c1ccccc1)C1CCS(=O)(=O)C1 (configuration not stated),.,3.0
O=C1Nc2ccccc2O/C1=C\c1ccc(C(=O)NCCN2CCOCC2)cc1,0.708,-2.8
OC(COC1=NCNc2cc(Cl)ccc21)c1ccc(F)cc1 (configuration not stated),-1.44,-1.3
O=C(NC12CC3CC(CC(C3)C1)C2)N1CCC(O)(c2ccc3c(c2)OCO3)CC1,-0.312,2.1
N#C/C(=C\c1[nH]c2ccccc2c1O)C(=N)N1CCOCC1,.,-55.3
NNC(=O)COc1ccccc1Cc1ccccc1,.,-0.6
O=c1cc(N2CCN(c3ccccc3)CC2)[nH]c(=O)n1-c1ccc(Br)cc1,-0.0095,2.8
CC(C)CC1Nc2ccc(C(=O)NCC3COc4ccccc4O3)cc2NC1=O (configuration not stated),0.0245,3.8
COC(=O)c1cc(C)sc1NC(=O)CN1CCN(Cc2ccccc2)CC1,-1.39,2.5
CN1CCN(C(=O)C2CCN(S(C)(=O)=O)CC2)CC1,0.179,-1.3
Cc1ccc(-n2c(=O)c3cccnc3n2CC(=O)NCc2ccccc2Cl)cc1C,.,0.8
COc1ccc(S(=O)(=O)NCCN2CCNC2=O)cc1OC,.,3.7
O=S(=O)(NCC1CCN(CCc2cccs2)CC1)c1cnc[nH]1,.,-0.9
COc1ccc(S(=O)c2ccccc2C(=O)O)cc1 (configuration not stated),0.392,0.2
N#Cc1cc(SCCC(=O)O)c(N2CCOCC2)cc1C#N,1.03,1.3
FC(F)Sc1nc2ccccc2s1,.,-0.6
Cc1ccccc1NC(C)C(=O)N/N=C/c1cccs1 (configuration not stated),-0.151,0.5
COc1ccccc1NC(=O)C(C)Nc1ccc(C)c(Cl)c1 (configuration not stated),.,-1.0
Cc1ccccc1C(=O)N1CCCCC1CO (configuration not stated),-1.53,2.7
CCC(=O)NCC(c1ccc2c(c1)OCO2)N1CCOCC1 (configuration not stated),-0.421,1.6

# Reprinted from the part before: 4 compounds, followed by the next part.
SMILES,LANA-nucl inh,BasE inh
Cc1ccccc1NC(C)C(=O)N/N=C/c1cccs1 (configuration not stated),-0.151,0.5
COc1ccccc1NC(=O)C(C)Nc1ccc(C)c(Cl)c1 (configuration not stated),.,-1.0
Cc1ccccc1C(=O)N1CCCCC1CO (configuration not stated),-1.53,2.7
CCC(=O)NCC(c1ccc2c(c1)OCO2)N1CCOCC1 (configuration not stated),-0.421,1.6
C=C(C)C(=O)OCc1ccc(C#N)cc1,.,-1.7
CCOC(=O)N1CCN(C(=O)C2CC(c3ccc(F)cc3)=NO2)CC1 (configuration not stated),-1.35,-0.3
CC(C)NC(=O)CCCN1C(=O)c2ccccc2Sc2ncccc21,-0.288,1.7
O=C(NCc1cc(F)cc2c1OCOC2)c1ccc(Oc2cc(Cl)cc(Cl)c2)o1,0.199,0.7
CC(C)COc1ccc(Br)cc1C(=O)O,0.819,0.7
O=C(/C=C/c1ccco1)CC1(O)C(=O)Nc2ccccc21 (configuration not stated),-0.694,5.2
CCOC(=O)c1cccc2c1-c1ccccc1C2=O,.,4.9
CCOc1cc(CNC2CC2)ccc1OC(F)F,.,-0.5
Cc1ccc(CNC(=O)CCc2c(C)nc3c(c2C)c(=O)n(C)c(=O)n3C)cc1,0.108,1.5
CC(NC(=O)c1ccncc1)C1CC2CCC1C2 (configuration not stated),.,-2.4
CC(=O)N1CCCc2cc(S(=O)(=O)Nc3ccc4c(c3)OCO4)ccc21,-0.241,0.3
N#CCCC1(CCC#N)S(=O)(=O)CC(c2ccccc2)CS1(=O)=O,.,2.4
CC1=CC(=C(C#N)C#N)C=C(C)N1C(C)C,.,3.2
Cc1cc(C(F)(F)F)n2nc(N)nc2n1,.,1.1
Cc1cc2c(=O)n(CCOc3ccccc3)cnc2s1,-0.768,-0.5
O/N=C1/C2C3CC4C5C3C1C5C1(OCCO1)C42 (configuration not stated),.,1.7
O=C(Nc1ccc(-c2cn3c(n2)SCC3)cc1)c1ccc2c(c1)OCO2,-0.184,0.4
Cc1cccnc1NC(=O)C(F)(F)F,-0.491,.
NCC1OC(COC[C@@H]2C(O)[C@H](OC3C(O)C(N)CC(N)C3OC3OC(CN)C(O)C(O)C3N)O[C@@H]2CO)C(N)C(O)C1O (some centres not stated),-0.972,-0.2
CCN(CC)Cc1ccc(C(=O)NCc2ccc(Cl)cc2)o1,.,-2.5
NS(=O)(=O)c1ccc(NC(NC(=O)c2ccco2)C(=O)c2ccc(Cl)cc2)cc1 (configuration not stated),1.08,-3.4
CC1=C(C#N)C(=O)N(CCc2ccccc2)C(=O)/C1=C\c1ccc(-c2ccccc2)o1,.,0.9
COC(=O)C1C(c2ccc(OC)c(OC)c2)C(C(=O)OC)S(=O)(=O)CS1(=O)=O (configuration not stated),.,1.6
CC1CCCCC1NC(=O)COC(=O)c1ccc(Cl)c(S(N)(=O)=O)c1 (configuration not stated),.,-0.5
O=c1c(-c2ccn[nH]2)cnc2sc3ccccc3n12,-0.173,.
CC(C)C(C(=O)O)N1C(=O)/C(=C/C=C/c2ccco2)SC1=S (configuration not stated),0.004,24.1
CS(=O)(=O)N1CCN(c2ccc(N)cc2)CC1,-0.105,4.6
O=C1CN(c2ccccc2)C(=O)CN1c1ccccc1,-0.123,0.6
CC(C)(C)C(=O)/C=c1\[nH]c(=O)/c(=C\c2cccs2)s1,.,-0.4
CCCN(CCC)C1=CC(=O)C(C)=C(C)C1=O,.,8.7

# 3 entries out of the list above, sorted by their value in LANA-nucl inh, low to high:
SMILES	LANA-nucl inh
O=C1CN(c2ccccc2)C(=O)CN1c1ccccc1	-0.123
CS(=O)(=O)N1CCN(c2ccc(N)cc2)CC1	-0.105
NS(=O)(=O)c1ccc(NC(NC(=O)c2ccco2)C(=O)c2ccc(Cl)cc2)cc1 (configuration not stated)	1.08

# Other records follow:
SMILES,LANA-nucl inh,BasE inh
Cc1ccc(SCC#N)cc1C,.,2.2
CC1(C)CC(=O)c2c(SCCOC(=O)c3ccccc3Cl)sc(C#N)c2C1,.,0.4
CN(C)Cc1cc(C(C)(C)C)cc(CN(C)C)c1O,1.76,-4.5
O=c1oc2ccccc2cc1-c1cn2cc(Cc3cccc(C(F)(F)F)c3)sc2n1,.,0.2
Cc1cccc2cc(CN(CC3CCCO3)C(=O)CC(C)(C)C)c3nnnn3c12 (configuration not stated),0.657,5.0
C=C(C)c1c2c(c(Cl)c3ccccc13)C[N+](CC)(CC)C2,.,-5.1
CC1=CC(=O)C2(C)C3CCC4CC(=O)CCC4(C)C3=CCC2S1(=O)=O (configuration not stated),-0.291,2.0
CCOC(=O)C1CCN(C(=O)c2ccc3c(c2)CCCN3S(C)(=O)=O)CC1,-0.363,-2.3
COc1ccc2[nH]c(=O)c(CN(Cc3cccnc3)C(=O)Nc3ccccc3)cc2c1,-0.359,6.0
CC1CC(C)CN(CCCNC(=O)c2ccc3c(c2)N(C)CCS3)C1 (configuration not stated),-0.584,-0.4
CC(=O)Oc1c(Br)cc2oc(=O)sc2c1Br,0.742,0.4
COCCc1nnc(N)s1,0.197,0.4
O=C(Nc1nc(-c2ccccc2)cs1)C1CCC1,.,4.1
N#Cc1c2ccc(OCC(N)=O)cc2n2ccccc12,1.88,.
Cn1ccc(-c2cc(C(=O)O)c3ccccc3n2)n1,-0.775,-1.8
O=C(NCc1ccccc1Br)C1CCCO1 (configuration not stated),0.934,-1.1
O=C(O)C1C2C=CC(C2)C1C(=O)NCc1cccc(Cl)c1 (configuration not stated),-0.315,7.2
COc1ccc(-c2nnc(C3CCN(S(=O)(=O)c4ccc(F)c(C)c4)CC3)o2)cc1,-0.0055,-1.0
CCn1c2ccccc2c2nnc(N3CCN(c4ccccc4)CC3)nc21,2.3,-3.0
CC(OC(=O)c1ccco1)C(=O)NC1CCCC1 (configuration not stated),2.15,-3.3
O=c1[nH]c(CSc2nnnn2C2CCCC2)nc2ccccc12,.,-9.8
O=C(NC1CC1)c1cccc(NC(=O)C2COc3ccccc3C2)c1 (configuration not stated),.,-1.5
CCn1c2ccccc2c2cc(/C=N/NC(=O)Cc3cccs3)ccc21,0.403,1.1
Cc1ccc(C2C3=C(CC(C)(C)CC3=O)NC3=C2C(=O)c2ccccc23)cc1 (configuration not stated),.,-4.8
COc1ccc(N(Cc2cc(C)on2)S(=O)(=O)c2cc(C)ccc2C)cc1,.,0.4
CCc1noc(C)c1C(=O)Nc1sc(C(=O)N(C)C)c(C)c1C(=O)OC,1.15,1.1
O=C(Cn1cnnn1)OCC(=O)c1ccc(Cl)s1,.,-4.8

# Single values from the entries so far:
# O=C(NC1CC1)c1cccc(NC(=O)C2COc3ccccc3C2)c1 (configuration not stated) | BasE inh = -1.5
# CCc1noc(C)c1C(=O)Nc1sc(C(=O)N(C)C)c(C)c1C(=O)OC | LANA-nucl inh = 1.15

# High-throughput results from PubChem BioAssay.

# An excerpt (hit frequency here may not be typical).
